MgrA DNA FP – S. aureus MgrA activity modulators, primary screen, biochemical, S. aureus Newman, fluorescence polarization. MgrA-DNA binding. inhibition, %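 (about 10 µg/mL by stock and volumes)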. actives 0.13% (n = 84,000);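 active = above 50% in either of two replicates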;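 note: 0% = protein plus DNA without compound and 100% = DNA alone without protein; higher means less MgrA bound to DNA so lower polarization; one replicate is shown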
S aureus helic – inhibitors of S. aureus replicative helicase, primary screen, biochemical, fluorescence unwinding readout; replicative DNA helicase (DnaC/DnaB), Staphylococcus aureus; purified S. aureus helicase, fluorescence unwinding assay; about half of the hits fall short of the stated cut; inhibition, %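 (tested at about 80 µM)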; actives 0.05% (n = 120,000);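 active = both duplicates at 50% or more, or one of them with a favoured structure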;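 note: 0% = mean of negative control wells and 100% = mean of positive control wells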
Starred values were filed as active, the others as inactive; . = no result given. Not all compounds are listed. The share of hits here may be higher or lower than overall.

S aureus helic | MgrA DNA FP | Compound
16.0 | -1.6 | O=C(NCc1ccc(F)cc1)[C@H](CSCc1ccccc1)N1Cc2ccccc2C1=O
-26.0 | . | Cc1c2cnn(-c3ccccc3)c(=O)c2c(C)n1C(C)C(=O)NCCN1CCCC1 (stereo unspecified)
. | -2.4 | CC(=O)c1c(C)cc2cc(C)cc(O)c2c1O
12.0 | 12.6 | O=C(c1cccc2c1C(=O)N(C1CCCCC1)C2)N1CCN(c2ccc(F)cc2)CC1
-12.0 | . | COc1ccc(NC(=O)c2ccc(S(=O)(=O)N3CCCC3)cc2)cc1
2.0 | . | C=CCn1c(SC2CCCC2=O)nnc1-c1ccc(Cl)cc1 (stereo unspecified)
-6.0 | . | Cc1nn(-c2ccccc2)c(N2CCCC2)c1/C=N/NC(=O)C1CC1
17.0 | 5.3 | CN(C)CCNC(=O)Cn1ncc2c(=O)oc3ccccc3c21
35.0 | . | CSCCC1COC(c2cccn2Cc2ccccc2)=N1 (stereo unspecified)
. | 1.1 | COc1ccccc1NC(=S)N1CC(C)(C)C1=O

In the list so far, 3 have four or more nitrogen atoms:
S aureus helic | MgrA DNA FP | Compound
-26.0 | . | Cc1c2cnn(-c3ccccc3)c(=O)c2c(C)n1C(C)C(=O)NCCN1CCCC1 (stereo unspecified)
-6.0 | . | Cc1nn(-c2ccccc2)c(N2CCCC2)c1/C=N/NC(=O)C1CC1
17.0 | 5.3 | CN(C)CCNC(=O)Cn1ncc2c(=O)oc3ccccc3c21

Continued:
S aureus helic | MgrA DNA FP | Compound
-8.0 | . | CC12C(=O)N(Cc3ccccc3)C(=O)C1C1C=CC2C1 (stereo unspecified)
2.0 | 1.0 | COc1ccc(S(=O)(=O)Nc2nc3ccccc3s2)cc1OC
4.0 | . | Cc1ccc(/C=C/S(=O)(=O)NCC(=O)O)cc1
. | 3.3 | CCOC(=O)c1ccc(N2CCOCC2)c(N=Cc2c(O)ccc3ccccc23)c1
. | 1.2 | FC(F)(F)c1cccc(Nc2ncn[nH]2)c1
-5.0 | . | N#Cc1ccc(C(=O)Nc2c(C(=O)c3cccs3)oc3ccccc23)cc1
1.0 | . | O=C1C2C3C=CC(C3)C2C(=O)N1CCCO (stereo unspecified)
. | 0.7 | CC(C)(C)c1ccc(Oc2ncccc2NS(=O)(=O)c2ccccc2C(F)(F)F)cc1
12.0 | -1.6 | Cc1nc(SCC(=O)O)c2c3c(sc2n1)CCCC3
30.0 | . | O=C(CSc1cccc[n+]1[O-])NC(=O)c1ccc(OC(F)F)cc1
. | 0.7 | COc1ccc(N2CC(C)(C)C2=O)cc1
-8.0 | . | CC(OC(=O)c1ccc(O)cc1)C(=O)c1ccccc1 (stereo unspecified)
0.0 | -0.1 | O=C(CC1SC(=O)NC1=O)Nc1cccc(C(F)(F)F)c1 (stereo unspecified)
13.0 | 17.4 | O=C1c2ccccc2C(=O)C1C(c1ccccc1)C1C(=O)c2ccccc2C1=O
-14.0 | . | CC(c1nc2ccccc2c(=O)[nH]1)N(C)CCOc1ccc(Cl)cc1 (stereo unspecified)
13.0 | . | O=C(NC1CCCCC1)c1ccc(CS(=O)Cc2ccc(Cl)cc2)o1 (stereo unspecified)
-18.0 | 11.2 | Oc1nc2ccccn2c1-c1c(O)nc2ccccn12
-12.0 | . | Nc1nc(SCC(=O)NN(c2ccccc2)c2ccccc2)n[nH]1
9.0 | 1.8 | Cc1ccc(Cn2c(SCC(=O)c3ccc(Br)cc3)nc3ncccc3c2=O)cc1
9.0 | 0.7 | CC(Cc1ccccc1)NC(=O)CC(c1ccccc1)c1cc(Br)ccc1O (stereo unspecified)
9.0 | . | CCCC(=O)N1CCS(=O)CC1
. | 0.0 | Clc1ccc(CSc2nc3ccccc3s2)cn1
2.0 | -2.3 | c1ccc(-c2nc3ccccn3c2NCC2CCCO2)cc1 (stereo unspecified)
5.0 | -0.1 | Cc1cc(I)ccc1NC(=O)CSc1ncn[nH]1
-77.0 | . | Cc1ccccc1OCC1=NN2C(=N)/C(=C\c3ccc(SCc4ccco4)o3)C(=O)N=C2S1
13.0 | -0.4 | O=C(NCc1ccc(-c2nc3ccccc3s2)cc1)c1cccnc1
9.0 | . | Fc1ccc(C(NCCc2ccccc2)c2nnc(-c3ccccc3)o2)cc1 (stereo unspecified)
. | -2.0 | O=C1CC(c2ccccc2)C(=O)N1c1ccc(I)cc1 (stereo unspecified)
8.0 | 2.5 | CN1CCN(CCCN2C(=O)CSC2c2ccc(F)cc2)CC1 (stereo unspecified)
-35.0 | . | CCCn1c(=O)c(-c2noc(-c3ccc(Cl)cc3)n2)nn(-c2ccccc2)c1=O
21.0 | -2.6 | CN(c1ccccc1)C(c1ccc(F)cc1)c1nnnn1C1CCCC1 (stereo unspecified)
-28.0 | . | Nc1cc(C(=O)O)ccc1Nc1ccccc1
-13.0 | 2.2 | COc1ccc(/C=N/n2cnnc2)cc1
5.0 | . | Cn1c(=O)[nH]c(=O)c2c1nc(N)n2CCOc1ccccc1
6.0 | 0.9 | O=C(Oc1ccc(C=Nc2ccc(F)cc2)cc1)c1ccco1
7.0 | -0.1 | CCOC(=O)c1cc(-c2ccccc2)n(CCC(=O)N(C)Cc2ccccc2)c1
. | 3.8 | CC(Nc1ccccc1)N1C(=O)CCC1=O (stereo unspecified)
13.0 | -2.2 | CC1CC(C)(C)NC(=S)N1CCCC(=O)NCc1ccccc1 (stereo unspecified)
2.0 | 3.8 | COc1ccc2c(c1)CCc1c-2nc2ccc(Br)cc2c1C(=O)O
5.0 | . | Cc1oc(CO)cc1C(=O)O
10.0 | 4.2 | COc1ccc(CNC(=O)OCc2nccnc2C(=O)Nc2ccc(Br)cn2)cc1
. | -1.5 | NC(=S)Nc1ccc(Cl)c(Cl)c1
-17.0 | . | CCn1c(CNC(=O)c2ccccc2)nc2ccccc21
16.0 | -0.2 | c1ccc2c(COn3nnc4ccccc43)cccc2c1
18.0 | 1.4 | CC(NC(=O)COc1ccccc1F)C1CC2CCC1C2 (stereo unspecified)
. | 2.6 | NCCS
-18.0 | . | Cc1ccc(-c2csc(NC(=O)c3cccc(Cl)c3)n2)cc1C
. | 2.2 | COc1ccc(CCNC(=O)c2ccc3nccnc3c2)cc1OC
-9.0 | 4.6 | O=S(=O)(CCc1ccccc1)c1ccccc1
13.0 | 45.5 | CN(C1=NC(=O)/C(=C2/C(=O)N(C)c3ccccc32)S1)c1ccc(Cl)cc1

(listing goes on)
S aureus helic | MgrA DNA FP | Compound
5.0 | 1.1 | CC1CCN(Cc2c(O)ccc3occ(C(=O)c4ccccc4)c23)CC1
-3.0 | . | COc1ccc(N2CCN(CCCNC(=O)C3CCCN(S(=O)(=O)c4c(C)noc4C)C3)CC2)cc1 (stereo unspecified)
-13.0 | . | COc1ccc(-n2cc[nH]c2=S)cc1
1.0 | -1.0 | CC1=C(C(=O)Nc2ccc(Cl)cc2C(=O)N2CCc3ccccc32)SCCO1
3.0 | 0.3 | CN(C)c1ccc(-c2nnc(SCC3CCCO3)n2C)cc1 (stereo unspecified)
-15.0 | . | O=C(/C=N/O)Nc1cccc(F)c1
6.0 | . | Nc1c(S(=O)(=O)c2ccc(Cl)cc2)c2cnn(-c3ccccc3)c(=O)c2n1CCCN1CCOCC1
15.0 | . | CCn1c(C)nc2cc(C(=O)NN=C3CCN(C)CC3)ccc21
-2.0 | 0.0 | On1c(-c2ccccc2Cl)nc2c1CCc1nonc1-2
. | -1.4 | c1ccc(-c2ccccc2NC2=NCCS2)cc1
-35.0 | . | CC1CC(C)CN(C(=O)Cn2c(=O)n(CCCCC(=O)NCc3ccco3)c(=O)c3ccccc32)C1 (stereo unspecified)
12.0 | -2.0 | N#CC1=CC=C(c2ccc(Cl)cc2)NC1SCc1nc2ccccc2[nH]1 (stereo unspecified)
10.0 | -3.5 | CCN(CC)C(=O)C1CCN(Cc2cccc(OC)c2OC)CC1
10.0 | 0.0 | O=C(Cn1c(C(F)(F)F)nc2ccccc21)c1ccccc1
12.0 | . | O=C1C2C3C=CC(C3)C2C(=O)N1CNc1ccccc1 (stereo unspecified)
14.0 | 1.7 | O=C(CSc1nc2ccsc2c(=O)n1Cc1ccccn1)c1ccccc1
-10.0 | . | C/C(N)=C(/C#N)C(=O)CSc1cc(C)ccc1C
. | -1.9 | CC(=O)Nc1nc2ccccc2c(=O)s1
4.0 | . | CCOC(=O)Cc1c(C)nc2c(C#N)c(C)nn2c1C
1.0 | . | CC(C)Cn1c(SCC(=O)C(C)(C)C)nc2ccccc2c1=O
-12.0 | . | Cc1ccc(O)c(C(=O)c2cc(-c3nc4ccccc4c(=O)[nH]3)n(C)c2)c1
-2.0 | 2.8 | CN1C(=O)C(C)(C)c2cc(S(=O)(=O)N3CCc4ccccc43)ccc21
6.0 | -1.2 | NCc1ccc(OCc2ccc(F)cc2)cc1
17.0 | 1.2 | CSc1nc(NNC(=O)c2ccco2)c2c3c(sc2n1)COC(C)(C)C3
5.0 | . | Cc1cccc(N2CCN(C(=O)Cc3c(C(=O)O)[nH]c4ccc(Cl)cc34)CC2C)c1 (stereo unspecified)
. | -1.6 | CC1(C)CC(=O)C=C(SCC(=O)c2ccc(Cl)cc2)S1
12.0 | . | Cc1cccc(NC(=O)CC(NC(C)C)C(=O)O)c1 (stereo unspecified)
-7.0 | . | O=C(c1c[nH]c2ccccc12)C(c1ccccc1)N1CCCCC1 (stereo unspecified)
1.0 | -6.2 | Nc1nc(CCC(=O)O)cs1
9.0 | 5.4 | Cc1nn(Cc2ccc(F)cc2)c(C)c1NC(=O)c1cc(-c2ccc3c(c2)OCO3)on1
. | -1.4 | CC(C)(C)S(=O)(=O)/C(C#N)=C/Nc1ccccn1
7.0 | . | O=S(=O)(c1cnc[nH]1)N1CCCCC1
4.0 | 0.1 | Cc1ccc(S(=O)(=O)NC2=NCN(C3CCN(Cc4ccccc4)CC3)CN2)cc1
6.0 | . | NC(=O)c1cnn(-c2ccc3ccccc3c2)c1N
31.0 | . | CN(CC(=O)N1CCc2ccccc21)C1CCS(=O)(=O)C1 (stereo unspecified)
-9.0 | . | CCC(=O)NC(C)c1nc2ccccc2n1CC (stereo unspecified)
13.0 | . | CC1CCC2(CC1)NC(=O)N(NC(=O)CN1CCN(Cc3ccc4c(c3)OCO4)CC1)C2=O (stereo unspecified)
-9.0 | . | CCN1C(=O)S/C(=C\c2cc(C)n(-c3ccccn3)c2C)C1=O
-7.0 | . | CCOc1cc(Br)c(CC#N)cc1OCC
6.0 | . | CCOC(=O)c1cc2ccccc2n1CCN(C)C
4.0 | 2.3 | COC(=O)COc1ccc(S(=O)(=O)c2ccc(OCC(=O)OC)cc2)cc1
0.0 | 1.1 | Cc1c(C(=O)Nc2ccccc2C#N)oc2ccccc12
. | 0.7 | c1ccc(C2=Nn3c(nnc3-c3ccccc3)SC2)cc1
9.0 | 1.4 | COc1cccc(NC(=S)/N=C(\N)Nc2nc(C)c3ccccc3n2)c1
11.0 | 1.8 | COC(CNC(=O)c1coc2nc3ccccc3nc12)OC
. | 0.9 | CCOC(=O)c1ccc(NC(=O)c2c(-c3c(Cl)cccc3Cl)noc2C)cc1
. | -0.8 | Cc1nc2ccccc2c(C(=O)O)c1C(=O)O
. | 0.4 | O=C(c1cc(-c2ccccc2)nc2ccccc12)N1CCN(Cc2ccccc2)CC1
. | -2.5 | COC(=O)c1sc(-c2ccccc2)cc1N
. | -3.9 | O=C(O)c1ccccc1C(=O)N1CCCc2ccccc21

(next part)
S aureus helic | MgrA DNA FP | Compound
. | -1.8 | Cc1cc(=O)n2c(-c3ccc(Cl)cc3)csc2n1
-1.0 | 0.5 | CNC(=O)C1C2C=CC3(O2)C1C(=O)N(C1CC1)C3C(=O)NCc1ccc(OC)cc1 (stereo unspecified)
0.0 | -1.3 | Cc1c(C(=O)N2CCCCC2)sc(NC(=O)C(C)C)c1C#N
9.0 | . | Cn1nc(C(=O)NCCN2CCOCC2)c2c1-c1ccccc1CC2
5.0 | 4.8 | CCSC1=N/C(=C\c2cc3c(cc2Br)OCO3)C(=O)S1
30.0 | . | CCc1ccc(NC(=O)C2CCN(S(=O)(=O)c3c(C)noc3/C=C/N(C)C)CC2)cc1
15.0 | . | Cc1ccc(C2Nc3ccccc3C(C)(C)O2)o1 (stereo unspecified)
12.0 | 3.6 | CC(C)CCOC(=O)c1cc2cc(Br)ccc2oc1=O
4.0 | -0.6 | COC(=O)c1ccc(Sc2ccc(Cl)cc2)c(N)c1
13.0 | . | Oc1c(CN2CCCCC2)cc(Cl)c2cccnc12

Grouped by structure, the compounds so far with a CF3 group
S aureus helic | MgrA DNA FP | Compound
. | 1.2 | FC(F)(F)c1cccc(Nc2ncn[nH]2)c1
. | 0.7 | CC(C)(C)c1ccc(Oc2ncccc2NS(=O)(=O)c2ccccc2C(F)(F)F)cc1
0.0 | -0.1 | O=C(CC1SC(=O)NC1=O)Nc1cccc(C(F)(F)F)c1 (stereo unspecified)
10.0 | 0.0 | O=C(Cn1c(C(F)(F)F)nc2ccccc21)c1ccccc1

Additional records.
S aureus helic | MgrA DNA FP | Compound
-5.0 | -1.6 | O=C(O)CCc1nc(-c2cccnc2)no1
8.0 | . | CCCCn1nc(C)c(C(=O)NC2=NCCS2)c1Cl
17.0 | . | CCC12CN3CC(CC)(CN(C1)C31C(=O)N(C)c3ccc(C)cc31)C2=O (stereo unspecified)
-18.0 | . | COc1ccc(C(=O)c2ccc(OC)c(OC)c2)cc1OC
. | -0.9 | O=S(=O)(c1cccc(C(F)(F)F)c1)n1nc(C(F)(F)F)c2cnccc21
. | 1.0 | CC(C)(C)c1ccc(NC(=O)/C=C/c2ccc(-c3cccs3)s2)cc1
17.0 | -5.8 | O=C(O)CN1CC(=O)NC1=O
. | -1.2 | CN(C)c1cc(C(F)(F)F)cnc1/C(N)=N/O
-5.0 | . | Cc1ccc(/C=N/n2cnc3sc(C)c(C)c3c2=O)o1
. | 3.8 | Cc1cc(=O)[nH]c2c1c(-c1cccs1)nn2C
12.0 | -2.4 | CCNC(=S)N1CCC(C(=O)c2ccc3c(c2)OCCO3)CC1
27.0 | . | O=C(O)c1ccc(OC(=O)c2ccccc2)cc1
